Screens deposited in PubChem BioAssay by several laboratories.
BJeLR viability = BJeLR cell viability loss. BJeLR (HRASV12) viability, CellTiter-Glo ATP luminescence, 48 h; reference of the scale not given here. inhibition, % (no concentration beside the values). 0.17% of 300,000 active. AID 1554;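 active = replicate mean above 50%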;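 note: 50 nL library stock added to about 25 µL; numbers are from one replicate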
PrP 5UTR inh = inhibition of PrP 5' UTR reporter expression. cell-based PrP 5' UTR mRNA reporter, plate reader. inhibition, % (no concentration beside the values). 0.35% of 340,000 active;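 active = every replicate at 50% or more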;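 note: 0 = median of the neutral control wells; tested in H4 reporter cells; numbers are from one replicate; inactives centre near -14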
Sa ugtP lethal = compounds lethal to S. aureus RN4220 ugtP deletion mutant; OD600 growth, 16 h; some inactives read as strong as hits; growth inhibition, % (concentration not given with the values); 0.54% of 330,000 active; AID 1259309;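 active = z-score under -3 and OD600 up to 0.15 on both plates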;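 note: plate controls were untreated wells for no effect and antibiotic for full effect; wells of about 80 µL received 100 nL stock; the first replicate is given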
Sa RN4220 lethal = S. aureus RN4220 growth inhibition; OD600, 16 h; inhibition, % (no concentration beside the values); 0.33% of 330,000 active;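 active = z-score of -3 or lower and OD600 up to 0.18 on both plates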;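 note: plate controls were untreated cells for no effect and reference antibiotic for full effect; stock transfer was 100 nL into about 80 µL; one replicate is shown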
Bead autofluor = counter-screen for toxin protease inhibitors: compound fluorescence | fluorescence intensity (no concentration beside the values) | compound autofluorescence counterscreen, microsphere flow cytometry; stronger effect = higher value | AID 624483 | 3.1% of 360,000 active;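 active = at least 3 SD above the mean of all compounds, about 16000 in these data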;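 note: 100 nL of 1 mM stock went into each well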
Mtb hypoxia rep = Mtb hypoxia fluorescent reporter inhibition. M. tuberculosis hypoxia-regulated fluorescent reporter, fluorescence. fluorescence inhibition, % (test concentration not listed). 0.1% of 300,000 active. AID 1159583;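 active = 35 to 45% if threefold the growth effect, above 45% if 1.5-fold the growth effect; inactive = the rest, general growth blockers included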;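 note: wells of about 50 µL received 100 nL stock; 0% = vehicle wells and 100% = reference inhibitor wells; whole bacteria with a GFP reporter of the hypoxia response; strong numbers were not always called active; many hits fall short of the cut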
Mtb hypoxia rep growth = second read-out of Mtb hypoxia rep, no call of its own (marks repeat the call); growth inhibition, %; measured here: M. tuberculosis growth (absorbance);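 0% = vehicle and 100% = reference antibiotic; read after six days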
* = called active by the depositor; . = not tested or not shown.

The first 2 records (preview)
SMILES	BJeLR viability	PrP 5UTR inh	Sa ugtP lethal	Sa RN4220 lethal	Bead autofluor	Mtb hypoxia rep	Mtb hypoxia rep growth
COc1ccc(-c2nc(N)nc(C(F)(F)F)c2-c2csc(C)n2)c(O)c1	-5.1	0.1	2.1	4.1	3894	-4.4	2.0
CCOC(=O)N1CCC(NC(=O)C(NS(=O)(=O)c2ccc3c(c2)CCN3C(C)=O)C(C)C)CC1 (stereo unspecified)	-9.7	-13.5	-0.7	2.5	3181	-0.3	1.3

This part in full, repeating the preview:
SMILES	BJeLR viability	PrP 5UTR inh	Sa ugtP lethal	Sa RN4220 lethal	Bead autofluor	Mtb hypoxia rep	Mtb hypoxia rep growth
COc1ccc(-c2nc(N)nc(C(F)(F)F)c2-c2csc(C)n2)c(O)c1	-5.1	0.1	2.1	4.1	3894	-4.4	2.0
CCOC(=O)N1CCC(NC(=O)C(NS(=O)(=O)c2ccc3c(c2)CCN3C(C)=O)C(C)C)CC1 (stereo unspecified)	-9.7	-13.5	-0.7	2.5	3181	-0.3	1.3
CN1CCN(C(=O)COc2ccc3ccccc3c2Br)CC1	10.0	0.9	-0.3	3.2	10068	12.3	17.9
O=C(NN=Cc1cnc(N2CCCCC2)s1)c1ccc(C(F)(F)F)cc1	.	.	14.1	5.9	.	11.9	6.3
CCOC(=O)c1c(C)[nH]c(C(=O)COC(=O)/C=C/c2ccc3c(c2)OCO3)c1C	-1.7	-26.8	7.3	3.3	2033	14.7	0.1
CCC(CO)NCc1ccc(-c2ccccc2)cc1 (stereo unspecified)	-4.8	-23.6	2.7	6.3	2239	5.4	10.2
Cn1c(SCC(=O)NNC(=O)c2ccccc2)nnc1C1CC1	-6.7	-14.3	8.9	2.7	5730	-5.3	1.1
CCCSc1nsc(SCCC)c1C#N	3.3	-19.7	16.8	9.9	2452	5.7	6.5
CCOC(=O)c1sc(=NC(=O)COc2ccc(Cl)cc2)n(C)c1C	3.6	5.7	1.0	4.6	4207	2.0	8.0
COc1ccccc1-c1cc(C(=O)N/N=C/c2ccc(C)o2)c2ccccc2n1	-11.3	5.6	.	.	4774	.	.
CCc1ccc(-c2csc3ncn(CC)c(=O)c23)cc1	-1.6	-19.4	1.7	0.6	2719	8.9	2.3
CC(C)N(C(=O)CSc1nnc(Cc2csc(Nc3ccccc3)n2)o1)C(C)C	-3.2	-14.6	3.0	1.4	3482	-1.0	5.9
COc1ccc2cc(-c3cccnc3)ncc2c1	.	-37.2	-2.4	-6.5	2870	9.9	1.4
O=C(Cc1cccs1)NN=Cc1ccc([N+](=O)[O-])s1	.	.	16.6	34.7	.	12.1	2.0
COc1ccc(N(CC(=O)N2CCN(Cc3ccccc3)CC2)S(C)(=O)=O)cc1OC	-2.5	-15.6	6.8	1.7	3126	5.0	-13.9
CCn1cc(CCCC(=O)NCc2cccnc2)c2ccccc21	1.8	-32.6	-3.5	-0.6	3583	-6.8	-0.1
Cn1c(=O)cc(SCC(=O)NCCCN2CCOCC2)c2ccc(Cl)cc21	-11.5	-8.1	-0.3	3.6	3326	2.0	-2.7
CC(=NNC(=O)CNC(=O)c1cccc(F)c1)c1ccc2ccccc2c1	.	.	-3.6	-3.0	.	15.3	2.6
Cc1ccc(NC(=O)C(CN(C)C)=NO)cc1	.	.	4.2	5.0	.	4.4	8.1
O=C(CN1CCN(S(=O)(=O)c2ccccc2F)CC1)Nc1ccccc1C(=O)c1ccccc1	4.0	-12.1	4.7	12.7	4306	17.9	7.4
CCOc1cccc(NC(=O)C2CC(=O)N(C)C(=Nc3cccc(F)c3)S2)c1 (stereo unspecified)	-5.7	-30.2	-0.2	-2.4	10323	4.2	10.3
O=C(O)c1cc2n(n1)C(C(F)(F)F)CC(c1ccco1)N2 (stereo unspecified)	3.1	-14.3	2.7	5.3	3744	.	.
N#CCC(=O)Nc1ccc(C(=O)OCC(=O)Nc2ccccc2-c2ccccc2)cc1	-6.7	-25.7	-8.4	2.0	3489	3.8	4.1
Cc1ccc(C(=O)C2=C(O)C(=O)N(Cc3ccco3)C2c2cccc(Br)c2)o1 (stereo unspecified)	2.7	-13.2	.	.	5734	.	.
CN(C)c1cccc2c(S(=O)(=O)N3CCOCC3)cccc12	0.1	-21.6	1.7	5.2	4963	.	.
Next section
SMILES	BJeLR viability	PrP 5UTR inh	Sa ugtP lethal	Sa RN4220 lethal	Bead autofluor	Mtb hypoxia rep	Mtb hypoxia rep growth
C=CCO/N=C/C1=C(O)C(C(=O)OC)C(C)(C)CC1=O (stereo unspecified)	-0.7	-21.7	.	.	3362	.	.
CCOC(=O)C1CCN(C(=O)C(C)Sc2nnc3ccccn23)CC1 (stereo unspecified)	.	-12.1	-6.6	-4.3	3553	-1.6	-4.9
O=C(c1ccccc1)N(Cc1ccccc1)c1ccccn1	10.4	-7.8	-3.8	4.0	10766	2.0	15.2
CC(=O)c1cc(Cc2csc(C(C)=O)c2)cs1	-3.7	-16.8	2.7	-0.2	7052	3.5	-5.8
O=C(CN1C(=O)NC2(CCCC2)C1=O)Nc1nc(-c2ccc(F)cc2)cs1	-15.4	-27.4	8.6	0.6	10228	2.1	8.5
O=C(CNC(=O)c1ccccc1F)OCCCOC(=O)CNC(=O)c1ccccc1F	-11.1	-9.1	0.3	1.7	30957*	5.0	-3.4
CS(=O)(=O)Nc1ccc(C2=NN(C(=O)c3ccco3)C(c3ccc(F)cc3)C2)cc1 (stereo unspecified)	-6.8	-0.2	-0.2	-3.1	2074	-3.4	-0.8
CSC1=C(C#N)C(=O)NC(c2ccccc2O)S1 (stereo unspecified)	1.5	-17.2	2.6	7.8	4184	7.6	7.5
CC(C)C[C@@H](COc1ccccc1)N1CCN(CCc2ccccc2)CCC1=O	-16.9	-23.2	.	.	3771	.	.
COc1cc(Cl)c(C)cc1NC(=O)COC(=O)/C=C/c1c(C)nn(C2CCS(=O)(=O)C2)c1Cl (stereo unspecified)	1.3	-7.5	.	.	3065	.	.
Cc1cccc(NC(=O)COC(=O)c2cccs2)c1C	-7.2	-8.9	1.0	0.1	3252	2.3	-5.3
Cc1cc(/C=C2\C(=N)N3N=C(S(C)(=O)=O)SC3=NC2=O)c(C)n1Cc1ccccc1	-6.0	-8.0	-4.9	10.4	2030	4.0	0.6
CC(C)(C)c1nn(-c2ccccc2)c2nc(Cl)c(C=O)cc12	4.9	-13.7	32.6	-3.7	11188	8.4	6.1
CC(C)(C)C(=O)Nc1sc2c(c1-c1nc3ccccc3[nH]1)CCCC2	0.4	.	-8.3	-3.1	6760	-1.7	-1.0
CN1CCc2c(sc(NC(=O)c3ccc(C(=O)c4ccccc4)cc3)c2C(N)=O)C1	6.1	-4.2	10.3	0.3	4666	4.8	-6.3
O=C(NCc1cccnc1)c1c[nH]c2cc3c(cc2c1=O)OCCO3	9.4	-12.9	6.9	5.4	8598	9.2	6.0
Cn1c(=O)[nH]c2sc3c(c2c1=O)CC(C)(C)OC3	2.1	-7.4	6.1	2.3	5240	.	.
CCC(c1nnnn1C1CCCC1)N1CCN(c2ccccc2F)CC1 (stereo unspecified)	-7.1	-16.9	10.3	-0.1	4162	.	.
COc1ccc(Oc2nnc(-c3ccc(C)cc3)c3ccccc23)cc1	2.0	-8.1	10.0	-1.4	8656	4.9	1.8
CCOc1ccc(NC(=O)C(=O)NCCN2CCN(S(=O)(=O)c3ccc(C)cc3)CC2)cc1	10.3	-14.5	-6.1	3.0	4092	9.9	-0.4
O=C(CCc1nc2ccccc2c(=O)[nH]1)NCC(=O)Nc1ccc(F)c(F)c1	0.9	2.1	7.9	-1.1	5504	-3.3	-6.9
CCc1ccc(CNC(=O)CCCC(=O)n2nc(C)c3ccccc32)cc1	15.9	-3.4	9.7	5.1	4355	0.8	-1.8
CC(C)CC(NC(=O)c1nc[nH]c1C(=O)NC(c1ccccc1)c1ccccc1)C(=O)OCc1ccccc1 (stereo unspecified)	.	.	-6.6	-6.7	.	2.3	11.4
COc1ccc(NC(=O)CNC(=O)C23CC4CC(CC(C4)C2)C3)c(OC)c1	7.8	-20.1	6.1	3.0	5658	-4.0	-0.5
COC(=O)c1c(NC(=O)COC(=O)c2ccccn2)sc(C)c1C	1.9	-1.2	-1.8	2.0	4784	-6.1	-5.4

Profiles from above.
CC(C)(C)c1nn(-c2ccccc2)c2nc(Cl)c(C=O)cc12 reads BJeLR viability: 4.9; PrP 5UTR inh: -13.7; Sa ugtP lethal: 32.6; Sa RN4220 lethal: -3.7; Bead autofluor: 11188; Mtb hypoxia rep: 8.4; Mtb hypoxia rep growth: 6.1
CSC1=C(C#N)C(=O)NC(c2ccccc2O)S1 (stereo unspecified) reads BJeLR viability: 1.5; PrP 5UTR inh: -17.2; Sa ugtP lethal: 2.6; Sa RN4220 lethal: 7.8; Bead autofluor: 4184; Mtb hypoxia rep: 7.6; Mtb hypoxia rep growth: 7.5
CN1CCc2c(sc(NC(=O)c3ccc(C(=O)c4ccccc4)cc3)c2C(N)=O)C1 reads BJeLR viability: 6.1; PrP 5UTR inh: -4.2; Sa ugtP lethal: 10.3; Sa RN4220 lethal: 0.3; Bead autofluor: 4666; Mtb hypoxia rep: 4.8; Mtb hypoxia rep growth: -6.3

The list continues.
SMILES	BJeLR viability	PrP 5UTR inh	Sa ugtP lethal	Sa RN4220 lethal	Bead autofluor	Mtb hypoxia rep	Mtb hypoxia rep growth
Clc1ccccc1CN1CCN(c2ccccc2)CC1	-2.7	-14.3	6.9	1.7	5857	-1.8	3.6
O=C(CCN1C(=O)C2C3CC(C(Br)C3Br)C2C1=O)OCC(=O)c1cccc([N+](=O)[O-])c1 (stereo unspecified)	3.6	-19.1	-1.9	-3.2	3761	-2.9	8.6
COc1ccc(-c2nc3c(c(SCC(=O)N4CCOCC4)n2)Cc2c(CO)cnc(C)c2O3)cc1	13.5	-8.4	5.5	5.7	5413	2.2	-3.2
COc1ccc(C)cc1S(=O)(=O)Nc1cccc(Cl)c1	5.0	-9.2	-6.5	6.4	2199	.	.
O=c1/c(=C/c2ccccn2)sc2nc3ccccc3n12	1.5	-85.3	.	.	2760	.	.
CCOc1nc(-c2ccccc2)ccc1-c1noc(COc2ccccc2)n1	-1.4	-10.2	5.3	-1.4	2910	4.7	2.6
COc1ccc(N2CCN(C(=S)NC(=O)c3cccs3)CC2)c([N+](=O)[O-])c1	-8.0	-31.3	8.4	6.5	4699	12.0	11.1
CC(C)OC(=O)c1cc2c(=O)[nH]c(C(Cl)(Cl)Cl)nc2o1	5.7	0.8	86.7*	91.9*	3962	10.0	8.5
CCOC(=O)c1ccc(NC(=O)c2cc(F)c(F)cc2Cl)cc1	9.5	-28.6	0.8	3.7	4631	4.1	2.4
CCOC(=O)N1CCN(C(=O)C(CC(C)C)NS(=O)(=O)c2ccc(C)cc2)CC1 (stereo unspecified)	.	-29.1	5.4	-0.8	3957	7.5	-8.3
Cc1ccc(NC(=O)CCN2C(=O)C3CC=CCC3C2=O)cc1Cl (stereo unspecified)	.	-18.4	3.6	1.0	3925	4.9	-3.6
CC(OC(=O)c1ccccc1NS(=O)(=O)c1cccc(C(F)(F)F)c1)C(=O)N(C)Cc1ccccc1 (stereo unspecified)	-8.9	-11.2	12.9	2.8	2436	3.6	2.5
CC(=NNC(=O)c1nn(C)c(C)c1Br)c1cccc(NC(=O)c2ccoc2C)c1	.	.	-16.1	-5.3	.	3.0	-2.1
O=S(=O)(NCc1ccccc1Cl)c1ccc(-n2cccn2)cc1	-6.7	-2.2	0.1	5.1	4909	-0.9	-1.8
O=C(CSc1ncnc2c1cnn2-c1ccccc1)NC1CCS(=O)(=O)C1 (stereo unspecified)	.	-14.9	4.4	5.5	4069	6.0	10.0
Cc1cccc(C)c1NC(=O)CNC(=O)C(C)N1CCN(c2cccc(Cl)c2)CC1 (stereo unspecified)	.	1.6	11.0	4.7	6739	4.9	6.7
CCCN1CCC(NC(=S)Nc2ccc(OC)c(OC)c2)CC1	-1.0	0.4	-10.6	-0.5	4540	-3.4	0.2
CCOC(=O)[C@@H]1[C@H]2COc3ccccc3[C@@H]2N2C(=O)N(c3cccc(Cl)c3)C(=O)[C@]12C	-0.1	-19.7	.	.	3037	.	.
